# Sfp inh – qHTS Assay for Inhibitors of Bacillus subtilis Sfp phosphopantetheinyl transferase (PPTase); Biochemical Sfp PPTase activity, qHTS; Potency, µM, inactives show max response, negative = inhibition, hits mostly inhibitors; actives 3.5% (n = 310,000); active = well fitted inhibition curve with a large enough effect; inconclusive = small, poorly fitted or top-dose-only effect, or another doubt; inactive = no such curve, though single readings can be large or run the other way;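 note: the enzyme is Sfp with the accession as filed and its product quenches rhodamine fluorescence; potency is the fitted concentration of half-maximal effect; 0% = enzyme reaction without inhibitor and -100% = no enzyme wells; top concentration of the series not given in the record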
#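 Buffer: 50 mM Hepes-Na pH 7.6, 10 mM MgCl2, 0.01% Nonidet P-40, 0.01% BSA. Enzyme 15 nM, pre-exposed to compound 15 min; substrates then added and fluorescence change tracked over 30 min.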
# gsp ag – qHTS for Agonist of gsp, the Etiologic Mutation Responsible for Fibrous Dysplasia/McCune-Albright Syndrome: qHTS. gsp mutant cells, cAMP HTRF, 30 min; control for the full effect not named in the record. Potency, µM (series often up to 76.9 µM), without a hit: at the highest dose activation (cAMP increase), most hits filed as activators. actives 0.13% (n = 340,000). AID 624287, 2012; active = well fitted activation curve with a large enough effect; inconclusive = small, poorly fitted or top-dose-only effect, or another doubt; inactive = no such curve, though single readings can be large or run the other way; cell line not stated here;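 note: phosphodiesterase inhibitor Ro 20-1724 added with compounds to block cAMP breakdown; potency is the fitted concentration of half-maximal effect; nearly all actives have a fitted effect of over 60% in size; about a fifth of the inactives were tested at one dose only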
#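 Cells stably selected in G418 were plated at 2000/well, grown 16-24 hr, then given compounds in DMSO with the PDE inhibitor […] (300 uM solution added) for 30 min at 37C; cAMP was read by HTRF.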
# gsp antagonist – qHTS for Antagonists of gsp, the Etiologic Mutation Responsible for Fibrous Dysplasia/McCune-Albright Syndrome: qHTS; actives 0.4% (n = 340,000); Potency, µM (series often up to 76.9 µM), for the others: at the highest dose activity change, negative = inhibition, most hits filed as inhibitors; gsp-mutant cells, cAMP HTRF, 30 min; control for the full effect not named in the record; AID 624288, 2012; active = falling curve of any shape with a large fitted effect; inconclusive = falling curve, mostly with a smaller effect; inactive = flat or rising curve; cell line not stated here;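 note: intracellular cAMP measured with PDE inhibitor Ro 20-1724 present during compound exposure; potency is the fitted concentration of half-maximal effect; % is set by controls: 0 for no effect and ±100 for the full control effect; nearly all actives have a fitted effect of over 65% in size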
#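 HTRF cAMP read-out (cAMP-d2 plus anti-cAMP antibody-K in lysis buffer, 30 min RT). Before lysis, cells are exposed to compounds with […] for 30 min at 37C in DPBS containing Ca/Mg, BSA and Tween 20.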
# TRPV1 potentiator – HTS Assay for Compounds that Act as Potentiators of the Vanilloid Receptor 1. Transient receptor potential cation channel subfamily V member 1 (Homo sapiens), Q8NER1. TRPV1-expressing cells, Fluo-8 calcium influx, capsaicin EC20 potentiation; host cell line not named in the record; control for the full effect not named in the record. potentiation, % at 8.33 µM. actives 0.02% (n = 320,000); active means potentiation above 80%; inconclusive means 30% to 80%; inactive means below 30%; note: 0% is about no effect
#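 Cells expressing TRPV1 were dye-loaded with Fluo-8 and read kinetically: 10 s baseline, 3 min after compound (agonist portion), then 2 min after EC20 capsaicin (allosteric enhancer portion). Calcium-bound dye fluorescence at 480/520 nm.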
# Menin MLL FP FL – qHTS Assay for Inhibitors Targeting the Menin-MLL Interaction in MLL Related Leukemias: Competition With Fluorescein Labeled MLL-derived Peptide | FP activity change, % at 61.4 µM | Fluorescence polarization, fluorescein-MLL peptide displacement from menin | AID 1766, 2009 | 290,000 tested, under 10 active; inconclusive = falling polarisation curve, or a change in total fluorescence; inactive = total fluorescence flat and polarisation flat or rising; no compound was filed as active; the % refers to the polarisation; negative = inhibition;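 note: % of control where 0% means no effect; inhibitors lower the polarisation; unlabelled MLL peptide was the positive control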
# TRPML1 inh – qHTS for Inhibitors of the Human Mucolipin Transient Receptor Potential 1 (TRPML1). Mucolipin-1 (Homo sapiens), Q9GZU1. TRPML1-inducible cells, Ca2+ dye fluorescence, FDSS; hits give low values; inhibition of EC80 agonist-evoked calcium signal. activity change, negative = inhibition, % (no concentration beside the values). actives 0.02% (n = 390,000). AID 624415, 2012; in the data active means activity change below about -50%; inconclusive means about -30% to -50%; inactive means above about -30%;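 note: stimulus is agonist 54-4 at its EC80 concentration; % is set by controls: 0 for no effect and ±100 for the full control effect; compound concentration not given in the record; the text of the record puts the active cut at -80%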
# Target sequence (Q9GZU1 whole entry, looked up): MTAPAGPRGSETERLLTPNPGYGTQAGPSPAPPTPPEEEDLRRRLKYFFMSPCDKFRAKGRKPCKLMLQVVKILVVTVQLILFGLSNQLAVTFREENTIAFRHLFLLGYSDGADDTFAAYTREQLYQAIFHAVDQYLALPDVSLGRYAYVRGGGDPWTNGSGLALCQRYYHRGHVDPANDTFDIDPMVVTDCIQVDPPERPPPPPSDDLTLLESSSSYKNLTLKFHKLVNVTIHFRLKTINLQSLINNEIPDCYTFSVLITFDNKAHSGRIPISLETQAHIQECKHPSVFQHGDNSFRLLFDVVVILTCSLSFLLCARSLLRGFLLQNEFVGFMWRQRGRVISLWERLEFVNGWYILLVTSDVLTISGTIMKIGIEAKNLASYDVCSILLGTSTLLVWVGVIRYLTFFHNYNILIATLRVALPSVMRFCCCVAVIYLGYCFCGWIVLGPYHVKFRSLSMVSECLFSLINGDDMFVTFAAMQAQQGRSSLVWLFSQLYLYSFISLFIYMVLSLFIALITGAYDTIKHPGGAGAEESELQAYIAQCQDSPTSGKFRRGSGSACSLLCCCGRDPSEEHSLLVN
#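 Calcium fluorescence in TRPML1-DL cells induced overnight with Tet: a 110 s read after compound pin addition, then a 110 s antagonist read after challenge with 54-4 at 4 uM final (EC80).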
# ClpP mod – qHTS Assay for Activators of ClpP; actives 1.9% (n = 340,000); AID 651965, 2013; purified B. subtilis ClpP, FRET peptide cleavage, 20 min; Potency, µM (doses to about 57.5 µM), for the others: top-dose activity change, negative = active; ATP-dependent Clp protease proteolytic subunit (Bacillus subtilis (strain 168)), P80244; active = well fitted falling curve with a large enough effect; inconclusive = small, poorly fitted or top-dose-only effect; inactive = no such curve, though single readings can be large or run the other way; note: potency is the fitted concentration of half-maximal effect; the source files actives as falling curves though it sought activators and does not explain the sign; nearly all actives have a fitted effect of over 65% in size; many hits overshoot -100%
# Target sequence (P80244 whole entry, looked up): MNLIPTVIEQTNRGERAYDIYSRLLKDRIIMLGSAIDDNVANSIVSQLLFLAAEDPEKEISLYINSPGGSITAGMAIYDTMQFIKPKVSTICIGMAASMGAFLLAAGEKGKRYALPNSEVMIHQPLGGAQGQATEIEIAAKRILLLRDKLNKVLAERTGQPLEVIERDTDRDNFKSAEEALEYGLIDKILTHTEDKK
#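 Buffer: 100 mM Tris/HCl pH8, 100 mM KCl, 0.05% low protease BSA, 2.5% glycerol, 0.01% Tween-20. ClpP 10 microg/mL final; 20 min RT; delta FRET normalized to ADEP and DMSO controls.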
# Starred values were filed as active, the others as inactive; ? = inconclusive; . = not tested or not shown; [ ] = another dose, or the depositor's remark.
no.	canonical_smiles	TRPV1 potentiator	Sfp inh	gsp ag	Menin MLL FP FL	TRPML1 inh	gsp antagonist	ClpP mod
1	CC(=NCc1cccnc1)c1c(O)n(-c2ccccc2C)c(=O)[nH]c1=O	2	-4%	26%	-1.8	-1	-7%	0.4%
2	CC1=NN(c2ccccc2)C(=O)C1/C=C1/C(=O)NC(=O)N(c2cccc(C)c2)C1=O (stereo not given)	-1	-13%	.	9.6	.	.	.
3	CCOP(=O)(OCC)C(NC(=O)Cc1ccccc1)C(Cl)(Cl)Cl (stereo not given)	-9	17%	-6%[15.4 µM]	-4.8	-1	4%	-12%
4	S=c1[nH]nc(-c2cccs2)n1C1CCCCC1	?	?	2%[15.4 µM]	-1.4	-5	-4%	32µM*
5	Cc1nc2cc(C(F)(F)F)ccc2n1C1CCN(Cc2nnnn2Cc2ccc3c(c2)OCO3)CC1	-9	16%	?	2.9	24	-36%	-2.9%
6	Cc1cc(Cc2c(O)[nH]c(=S)[nH]c2=O)ccc1OC(C)C	3	56µM*	1%	0.8	.	-6%	-0.8%
7	CCOc1cccc(=NC2CCCCC2)c2c(C)n(C)c(C)c12	1	-6%	-1%[15.4 µM]	?	2	?	-0.8%
8	CN1CCN(c2nc(N)cc(=O)[nH]2)CC1	16	30%[activator]	-15%	-17	-3	4%	-2.7%
9	Fc1ccc(C2NCCc3[nH]cnc32)cc1 (stereo not given)	0	12%	12%	2.9	-1	10%	-4.3%
10	COc1cc(C2NCc3ccccc3-n3cccc32)ccc1O (stereo not given)	-12	-1%	15%	4.7	15	-8%	-0.4%
11	O=C(c1ccc(Cl)cc1)C1CCCN(Cc2ccc3c(c2)OCCO3)C1 (stereo not given)	26	-3%	-5%[15.4 µM]	5.3	6	7%	.
12	COC(=O)C1=C(c2ccc(F)cc2OCc2ccccc2)C[C@@H]2CC[C@H]1N2C(=O)N1CCC(O)CC1	-13	.	.	.	-7	-15%	-0.5%
13	Cc1ccc(-c2nc3ccc(Cl)cc3n2OC(=O)N(C)C)cc1	-1	15%	-6%	-0.7	-4	-18%	1.2%
14	Cc1ccc(-c2nn(Cc3ccccc3)cc2C(=O)O)cc1	-2	12%	-10%	2.8	12	0%	-2.2%
15	CC1=NOC2(C)Nc3ncnn3C(c3ccccc3)C12 (stereo not given)	?	-3%	11%	2.6	-5	7%	-20%
16	COc1cc(-n2c(=S)[nH]c3ccccc3c2=O)c(Cl)cc1Cl	-6	18%	-20%	1.8	9	-4%[15.4 µM]	1.3%
17	Cc1ccccc1C(=O)Oc1cccc(Nc2ncnc3ccccc23)c1	.	.	0%	.	0	-41%	?
18	Clc1ccc(C(Cn2ccnc2)OCc2csc3c(Cl)cccc23)c(Cl)c1 (stereo not given)	-30	.	.	.	37	-18%	-0.3%
19	Cc1cccc(C)c1OP(N)(=O)OCC(F)(F)F (stereo not given)	-4	-1%	12%	1.1	23	12%	1.4%
20	COc1ccc(C(=O)CSc2nnc(CNC(=O)c3ccc(S(=O)(=O)N(C)C)cc3)o2)cc1	-13	18%	?	-2.4	10	-4%	-1.3%
21	CC(Cc1ccccc1)NC(=O)Cc1ccc(N(C)C)cc1 (stereo not given)	2	11%	-41%[inhibitor]	2.2	-7	4%	-1.6%
22	COC(=O)C1=Nc2ccccc2/C1=C\c1c(O)n(C)c(=O)n(C)c1=O	-13	?	-2%	12	30	-6%	20%
23	CC1(C)CN=C(Nc2nc3ccccc3s2)S1	-7	12%	?	3.2	63	-5%[15.4 µM]	-2.8%
24	CCOc1ccc(CC2(CCc3ccncc3)C(=O)NC(=O)NC2=O)cc1	-11	18%	12%[15.4 µM]	-0.6	39	5%	.
25	O=C(Nc1ncccc1O)c1ccc(S(=O)(=O)NCc2ccco2)cc1	.	.	5%	.	14	.	-1.5%
26	O=C(CN1CC=C(c2ccccc2)CC1)NC(=O)NCc1ccco1	-8	0%	-65%[inhibitor]	2.9	31	-5%	-13%
27	CC12CCCCC1(O)[N+](=O)C1=C(CCCC1)N2[O-] (stereo not given)	-12	?	0%	-1.0	10	-1%	-1.1%
28	Cc1ccc(C2(O)CC(C)N(C)CC2C)cc1 (stereo not given)	7	18%	21%	1.2	-18	-3%	1.8%
29	COCCCNP1(=O)OCC(C)([N+](=O)[O-])CO1 (stereo not given)	.	.	14%	.	-9	-8%	1.3%
30	CC(C(=O)c1ccc2ccccc2c1)N1CCCCC1 (stereo not given)	12	17%	2%	-1.5	17	11%	4.2%
31	CCCCn1c(=O)c(C(=O)NC(C)c2ccccc2)c(O)c2ccccc21 (stereo not given)	3	2%	-34%[inhibitor]	-1.7	-4	13%	.
32	O=C(O)C(O)(c1ccccc1)C1CCCCC1 (stereo not given)	-3	16%	-24%	2.1	27	1%	-2.6%
33	CN1/C(=C\C=Nc2ccccc2)C(C)(C)c2ccccc21	-6	79µM*	5%	?	-3	4%	0.1%
34	COCCCn1c(=O)/c(=C/c2ccccc2OC(F)F)s/c1=C(\C#N)C(=O)NCCOC	.	.	16%	.	-3	-3%	.
35	C/C(=N\NC(=O)c1ccccc1Cl)c1c(O)n(C2CCCCC2)c(=O)[nH]c1=O	4	11%	-12%	4.3	31	-23%	1.3%
36	Cc1ccc(N2CCN(C(=O)c3cn(CC4CCCCC4)nn3)C(C)C2)cc1 (stereo not given)	.	.	?	.	-23	-9%	-0.5%

# 3 of the compounds above, with each value named.
29. COCCCNP1(=O)OCC(C)([N+](=O)[O-])CO1 (stereo not given)
  TRPV1 potentiator: .; Sfp inh: .; gsp ag: 14%; Menin MLL FP FL: .; TRPML1 inh: -9; gsp antagonist: -8%; ClpP mod: 1.3%

30. CC(C(=O)c1ccc2ccccc2c1)N1CCCCC1 (stereo not given)
  TRPV1 potentiator: 12; Sfp inh: 17%; gsp ag: 2%; Menin MLL FP FL: -1.5; TRPML1 inh: 17; gsp antagonist: 11%; ClpP mod: 4.2%

31. CCCCn1c(=O)c(C(=O)NC(C)c2ccccc2)c(O)c2ccccc21 (stereo not given)
  TRPV1 potentiator: 3; Sfp inh: 2%; gsp ag: -34%[inhibitor]; Menin MLL FP FL: -1.7; TRPML1 inh: -4; gsp antagonist: 13%; ClpP mod: .

# Further structures:
no.	canonical_smiles	TRPV1 potentiator	Sfp inh	gsp ag	Menin MLL FP FL	TRPML1 inh	gsp antagonist	ClpP mod
37	c1ccc2c3c([nH]c2c1)C1(CCNCC1)NCC3	9	17%	8%[15.4 µM]	-0.2	14	4%	-6.5%
38	CC(c1ccccc1)(c1ccccc1)c1ccncc1	-7	5%	19%[15.4 µM]	-2.5	32	-12%	.
39	Oc1c(Cl)cc(Cl)cc1CN1CCN(Cc2ccccc2)CC1	-5	?	-30%	3.4	7	-9%	-1.2%
40	CN(C)S(=O)(=O)N(CC(=O)Nc1ccccc1)c1ccccc1	12	32%[activator]	-24%	-3.0	15	-1%	-16%
41	O=C(COc1ccc(Cl)cc1)N1CCN(Cc2ccccc2)CC1	-25	3%	7%	0.5	-7	2%	0.8%
42	CC(Cc1ccccc1)NCCC(c1ccccc1)c1ccccc1 (stereo not given)	-15	.	.	.	17	2%	1.2%
43	Cc1ccc(/C=C2\C(=O)NC(=S)N(c3ccc(F)cc3)C2=O)o1	23	45µM*	-19%	?	-11	-5%	-2.4%
44	COc1ccc(Sc2cnn(-c3ccccc3)c(=O)c2Cl)cc1	-1	-12%	?	4.3	10	-11%	-0.9%
45	O=Cc1c(C(=O)O)n(Cc2ccccc2Cl)c2ccccc12	1	14%	0%	0.1	2	-4%	-1.3%
46	Cc1ccc(C(C)C)c(OCCn2c(=O)oc3ccccc32)c1	10	?	-24%	-1.9	6	-1%	1.7%
47	c1cnc(OCCN2CC2)cn1	.	.	9%	.	-8	6%	-4.0%
48	COc1ccc2c3c1O[C@H]1C(=O)CC[C@H]4[C@@H](C2)N(C)CC[C@]314	.	33%[activator]	.	-0.2	-15	4%	-1.4%
49	CCOC(=O)c1c(C)n(Cc2ccco2)c2c1cc(O)c1ccccc12	-19	?	9%	8.3	29	-3%	-7.0%
50	c1ccc2c(c1)cc1ccc3cccc4ccc2c1c34	.	.	2%[15.4 µM]	.	-5	2%	0.7%
51	COC(=O)Cn1cc(C=C2C(=O)NC(=O)NC2=O)c2ccccc21	10	?	?	-10	-12	-13%	.
52	O=c1[nH]c(=O)n(CCC2=CCCCC2)c(O)c1C=NC1CCN(Cc2ccccc2)CC1	8	2%	-21%	0.3	10	-13%	-3.3%
53	Cc1cccn2c(=O)c(C=Nc3ccccc3)c(NCc3ccco3)nc12	3	50µM*	-44%[inhibitor]	?	1	3%	-12%
54	NC(=Nc1ccccc1)NN=Cc1c[nH]c2ccccc12	.	.	0%	.	15	22%	1.3%
55	COc1cc(CN=Cc2c(O)n(C(C)(C)C)c(=O)[nH]c2=O)cc(OC)c1	10	1%	12%[15.4 µM]	?	5	-9%	-1.0%
56	Cc1nn(Cc2ccccc2)c(Cl)c1C(=O)OC(C)C(=O)Nc1ccc(F)cc1Cl (stereo not given)	-6	-6%	-60%[inhibitor]	10	22	-28%	1.1%
57	COc1ccc(C2=NCC(=O)N(CC(=O)NCc3ccco3)c3sc4c(c32)CCCC4)cc1	8	-12%	10%	2.6	0	?	-0.8%
58	O=C1NC(=O)N(Cc2ccccc2)C(=O)C1Cc1ccccc1 (stereo not given)	.	.	39%	.	-22	5%	-0.6%
59	CCC(=NCCC(c1ccccc1)c1ccccc1)c1c(O)[nH]c(=O)[nH]c1=O	-6	5%	-5%	-0.6	17	-3%	1.9%
60	CCCCn1c(O)c(C(C)=Nc2ccc3c(c2)CCC3)c(=O)[nH]c1=O	-7	3%	15%[15.4 µM]	0.2	-5	-3%	.

# Screens: PubChem BioAssay, National Center for Advancing Translational Sciences (NCATS)

# Some of the compounds tested, so the mix of outcomes need not match the whole.
